Screens: PubChem BioAssay, Southern Research Institute
motility = Vibrio cholerae motility inhibitors, OD read-out (AID 588778); Vibrio cholerae motility, OD read-out; higher % means a stronger effect; test concentration not given here; primary cut-off and reference of the scale not given here; strong numbers were not always called active; inhibition, %; hits with a dose series show IC50 in µg/mL; 10,000 tested, under 10 active; in the data active means confirmed in a dose series
motility viability = further read-out of motility, marked with its call; inhibition, %; measured here: bacterial viability at 10 ug/mL;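 higher means fewer living bacteria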
* = called active by the depositor. Some of the compounds tested, so the mix of outcomes need not match the whole.

The first 4 entries as a preview:
CC(NC(=O)CN1CCCC1)C12CC3CC(CC(C3)C1)C2 (configuration not stated)
  motility: 1%
  motility viability: 1

CCOC(=O)COc1ccc2ccccc2c1/C=C(\C)[N+](=O)[O-]
  motility: 7%
  motility viability: 6

CC(C)(C)c1ccc(OCC(=O)Nc2ncccn2)c(Br)c1
  motility: 0%
  motility viability: 11

C=CCN(CC=C)C(=S)Nc1ccc(S(N)(=O)=O)cc1
  motility: -6%
  motility viability: -3

The whole of this part, from the start:
CC(NC(=O)CN1CCCC1)C12CC3CC(CC(C3)C1)C2 (configuration not stated)
  motility: 1%
  motility viability: 1

CCOC(=O)COc1ccc2ccccc2c1/C=C(\C)[N+](=O)[O-]
  motility: 7%
  motility viability: 6

CC(C)(C)c1ccc(OCC(=O)Nc2ncccn2)c(Br)c1
  motility: 0%
  motility viability: 11

C=CCN(CC=C)C(=S)Nc1ccc(S(N)(=O)=O)cc1
  motility: -6%
  motility viability: -3

Cc1cc(=O)[nH]c2c1cnn2Cc1ccccc1
  motility: 50%
  motility viability: 18

Cc1ccc(S(=O)(=O)NC2(C(F)(F)F)C(=O)N(c3ccccc3)C3=C2C(=O)CC(C)(C)C3)cc1 (configuration not stated)
  motility: 2%
  motility viability: 10

COC(=O)c1ccc(OCC(O)CNC2CCCC2)cc1 (configuration not stated)
  motility: -11%
  motility viability: -3

CCOc1ccc(OCC)c(C2C(C#N)=C(N)N(c3cccnc3)C3=C2C(=O)CC(C)(C)C3)c1 (configuration not stated)
  motility: -5%
  motility viability: -6

COC(=O)c1cc(N2CCNCC2)nc2ccccc12
  motility: 20%
  motility viability: 22

O=C(NC1CCCCC1)N1CCN(c2ncccn2)CC1
  motility: 0%
  motility viability: -1

Cc1noc(NS(=O)(=O)c2ccc(NC(=O)CSc3nnnn3-c3ccccc3)cc2)c1C
  motility: -1%
  motility viability: 11

COc1ccc(CCOSc2nc3ccccc3[nH]2)cc1
  motility: 27%
  motility viability: 0

Cc1ccc(NC(=O)c2nn(C)cc2[N+](=O)[O-])c2cccnc12
  motility: 10%
  motility viability: 1

O=S(=O)(/N=C(\N1CCCCC1)C(F)(F)F)c1ccccc1
  motility: 0%
  motility viability: -4

Cc1cc(Cl)c2oc(C(=O)O)c(C)c2c1
  motility: 7%
  motility viability: -5

O=C(Cc1ccc([N+](=O)[O-])cc1)Nc1ccc(Cl)cc1F
  motility: -5%
  motility viability: -6

C=CCN(CC=C)C(=S)NCCOC
  motility: -12%
  motility viability: -2

COc1ccccc1OCC#CCSc1ncccn1
  motility: 0%
  motility viability: -2

N#Cc1cnn(C(=O)c2ccncc2)c1N
  motility: -6%
  motility viability: -3

CC(Oc1ccc(F)cc1)C(=O)N1CCN(C(c2ccccc2)c2ccccc2)CC1 (configuration not stated)
  motility: 8%
  motility viability: -1

O=C(Nc1cnccn1)c1ccncc1
  motility: -4%
  motility viability: -7

CCCn1c2ccccc2c2nnc(SCC(=O)N=C3NC(=O)CS3)nc21
  motility: -5%
  motility viability: -6

COc1ccc(C(=O)c2ccc(N3CCOCC3)c(F)c2)cc1Br
  motility: -2%
  motility viability: -2

CCCC(=O)Nc1nc2ccc(NC(=O)c3c(F)c(F)c(OC)c(F)c3F)cc2s1
  motility: 11%
  motility viability: 18

CCC(C)n1c(-c2ccccc2F)n[nH]c1=S (configuration not stated)
  motility: 16%
  motility viability: 5

The last 5 entries of the part before lead into the next:
O=C(Nc1cnccn1)c1ccncc1
  motility: -4%
  motility viability: -7

CCCn1c2ccccc2c2nnc(SCC(=O)N=C3NC(=O)CS3)nc21
  motility: -5%
  motility viability: -6

COc1ccc(C(=O)c2ccc(N3CCOCC3)c(F)c2)cc1Br
  motility: -2%
  motility viability: -2

CCCC(=O)Nc1nc2ccc(NC(=O)c3c(F)c(F)c(OC)c(F)c3F)cc2s1
  motility: 11%
  motility viability: 18

CCC(C)n1c(-c2ccccc2F)n[nH]c1=S (configuration not stated)
  motility: 16%
  motility viability: 5

O=C(NCc1ccc(F)cc1)C(Sc1ccccc1)c1ccccc1 (configuration not stated)
  motility: 13%
  motility viability: -3

CCOC(=O)c1c(-c2ccccc2)c(-c2ccccc2)n[nH]c1=O
  motility: -10%
  motility viability: -9

CN1CCN(NC(=O)c2cc3c(s2)CCCCC3)CC1
  motility: 10%
  motility viability: 31

CCOC(=O)N1CCN(Cc2nc(-c3ccc(C)cc3)no2)CC1
  motility: 13%
  motility viability: 0

COc1ccc(OC)c(C(=O)CCC(=O)Nc2cccc(C(F)(F)F)c2)c1
  motility: -5%
  motility viability: 4

COc1ccc(Cl)cc1NC(=S)N1CCc2ccccc2C1
  motility: -17%
  motility viability: -3

CCOC(=O)CCc1c(C)nc(SCCCn2c(=O)[nH]c3ccccc32)c(C#N)c1C
  motility: -2%
  motility viability: 1

O=C(O)c1cc2nc(-c3ccc(F)cc3)cc(C(F)(F)C(F)(F)F)n2n1
  motility: 5%
  motility viability: 21

COCCn1c(CN2CCc3ccccc3C2)nc2c1c(=O)n(C)c(=O)n2C
  motility: 10%
  motility viability: 25

c1ccc(CSc2n[nH]c(-c3ccncc3)n2)cc1
  motility: 10%
  motility viability: -5

COC(=O)C(Cc1ccc(O)cc1)NC(=O)NC12CC3CC(CC(C3)C1)C2 (configuration not stated)
  motility: -6%
  motility viability: -1

COC(=O)c1sccc1NC(=O)c1sc2cc(C)ccc2c1Cl
  motility: -12%
  motility viability: -11

CCOC(=O)C1C(=O)CC(C)(O)C(C(=O)OCC)C1c1ccc(SC)cc1 (configuration not stated)
  motility: -5%
  motility viability: 0

OCCN1CCN(c2nc3ccccc3nc2-c2ccccc2)CC1
  motility: 12%
  motility viability: 2

C=CCN(CC=C)C(=O)Cc1ccc(Br)cc1
  motility: 14%
  motility viability: -3

Cc1ccc(S(=O)(=O)N(C)c2c(C)ccc(S(=O)(=O)n3nc(C)cc3C)c2C)cc1
  motility: 1%
  motility viability: -2

O=C1CC(C(=O)Nc2cccc([N+](=O)[O-])c2)C(c2ccccc2)O1 (configuration not stated)
  motility: 10%
  motility viability: -2

O=C(O)CCSc1ncnc2ccccc12
  motility: -6%
  motility viability: -2

O=[N+]([O-])c1ccc(NCCOc2ccccc2)c2ncccc12
  motility: -6%
  motility viability: -8

CCC(C)c1ccc(NC(=O)CSCc2ccccc2)cc1 (configuration not stated)
  motility: 18%
  motility viability: -3

Cc1c(NC(=S)Nc2ccccc2C(F)(F)F)cccc1[N+](=O)[O-]
  motility: -6%
  motility viability: -2

O=C(CN(c1ccccc1)S(=O)(=O)c1ccccc1)NCCNC(=O)N(c1ccccc1)S(=O)(=O)c1ccccc1
  motility: -7%
  motility viability: 6

O=C(NC(=S)Nc1ccccc1C(=O)NC1CCCCC1)c1ccco1
  motility: 3%
  motility viability: 8

O=[N+]([O-])c1nn(Cc2ccc(F)cc2)cc1Br
  motility: 4.1µg/mL*
  motility viability: 53*

C=CCc1ccc(OCCn2cccc2C=O)c(OC)c1
  motility: 12%
  motility viability: 3

A few values from the list.
Under motility viability, CCOC(=O)N1CCN(Cc2nc(-c3ccc(C)cc3)no2)CC1 shows 0
Under motility viability, CCOC(=O)c1c(-c2ccccc2)c(-c2ccccc2)n[nH]c1=O shows -9
Under motility viability, O=C(O)CCSc1ncnc2ccccc12 shows -2
Under motility, OCCN1CCN(c2nc3ccccc3nc2-c2ccccc2)CC1 shows 12%
Under motility viability, CCOC(=O)C1C(=O)CC(C)(O)C(C(=O)OCC)C1c1ccc(SC)cc1 (configuration not stated) shows 0

The listing picks up; the two compounds before the break are reprinted first.
O=[N+]([O-])c1nn(Cc2ccc(F)cc2)cc1Br
  motility: 4.1µg/mL*
  motility viability: 53*

C=CCc1ccc(OCCn2cccc2C=O)c(OC)c1
  motility: 12%
  motility viability: 3

S=c1[nH]nc(Cc2c[nH]c3ccccc23)o1
  motility: 17%
  motility viability: 30

CN(C)c1c([N+](=O)[O-])c(C(Cl)Cl)nn1-c1ccccc1
  motility: 0%
  motility viability: 0

CCn1c(=O)n(CC)c2cc(NC(=O)CCc3ccccc3)c(Br)cc21
  motility: -1%
  motility viability: -5

CCN(CC)c1cc(Cl)c(C(=O)c2ccccc2)cc1F
  motility: 3%
  motility viability: -5

CN(C)S(=O)(=O)Nc1ccc(F)c(Cl)c1
  motility: -3%
  motility viability: -5

COc1ccc2c(c1)c1n[nH]c(=S)nc1n2C
  motility: 3%
  motility viability: -4

COc1ccc(C(CC(=O)NCc2ccco2)Sc2n[nH]c(-c3ccc(Cl)cc3)n2)cc1 (configuration not stated)
  motility: 24%
  motility viability: 10

Fc1ccc(CNC(=S)NNC(=S)NC2CCCCC2)cc1
  motility: 5%
  motility viability: -3

O=C(CC(Nc1ccc(F)cc1)C(=O)O)c1ccccc1 (configuration not stated)
  motility: 4%
  motility viability: 0

CCOc1ccc(NC(=O)CCSc2nnc(C)s2)cc1
  motility: -2%
  motility viability: -3

CC(C)(C)c1ccc(NC(=O)Nc2nnc(Cc3ccc([N+](=O)[O-])cc3)s2)cc1
  motility: 10%
  motility viability: -4

O=C(CNC(=O)c1ccc(Br)o1)Nc1cccc(-c2cnc3ccccc3n2)c1
  motility: 18%
  motility viability: 1

CCOC(=O)Cc1cc(-c2ccc(O)cc2)nc2ccc3ccccc3c12
  motility: -6%
  motility viability: -9

O=C(Cc1cccs1)Nc1c[nH]c(=O)[nH]c1=O
  motility: 17%
  motility viability: 5

O=C(CN1C(=O)C2CC=CCC2C1=O)NC1CCCCC1 (configuration not stated)
  motility: -20%
  motility viability: -1

Cc1ccc(C(CCNCc2ccc(N(C)C)cc2)c2ccco2)cc1 (configuration not stated)
  motility: 34%
  motility viability: 12

COc1ccc(C2C3=C(CC(C)(C)CC3=O)Nc3c2c(=O)[nH]c(=O)n3Cc2ccccc2)cc1 (configuration not stated)
  motility: -10%
  motility viability: 1

CCOC(=O)N1CCC(NC(=O)CSc2nc(-c3ccc(Br)cc3)cc(C(F)(F)F)c2C#N)CC1
  motility: 6%
  motility viability: 9

COc1ccc(-n2c(-c3ccco3)n[nH]c2=S)cc1
  motility: 2%
  motility viability: -1

O=C(NC(=O)C(F)(F)F)NC1CCCC1
  motility: 26%
  motility viability: 15

O=C(NCc1ccc(Cl)c(Cl)c1)c1ccc(Br)o1
  motility: 20%
  motility viability: 4

CCC(=O)Nc1ccc(Nc2nc(C)c([N+](=O)[O-])c(Nc3ccc(NC(=O)CC)cc3)n2)cc1
  motility: 11%
  motility viability: 4

O=C1CC(O)(C(F)(F)C(F)F)Oc2c1ccc1ccccc21 (configuration not stated)
  motility: 46%
  motility viability: 8

CN1CCc2nc3sc(C(=O)C(C)(C)C)c(N)c3cc2C1
  motility: 17%
  motility viability: 7

O=C(Nc1ccc(C2CC2(Cl)Cl)cc1)c1ccccc1I (configuration not stated)
  motility: 7%
  motility viability: -3

Cn1nnc(NC(=O)c2cccc(OCc3ccccc3)c2)n1
  motility: 1%
  motility viability: 10

COc1ccc2c(c1)C(Sc1ccccc1)c1ccccc1O2 (configuration not stated)
  motility: -4%
  motility viability: -6

Cc1nnc(NC(=O)c2ccc(Br)o2)s1
  motility: 17%
  motility viability: 3

C=C(C)C1CCC(C)=C1COC(=O)Nc1ccccc1 (configuration not stated)
  motility: 25%
  motility viability: 4

CSc1ccc(CN2CCN(C(=O)Cc3ccccc3)CC2)cc1
  motility: 18%
  motility viability: 7

COc1cc2nc(NC(=O)c3ccc(Cl)cc3)[nH]c(=O)c2cc1OC
  motility: 1%
  motility viability: -6

CCOc1ccc(NC(=O)CC2Nc3cc(C)c(C)cc3NC2=O)c([N+](=O)[O-])c1 (configuration not stated)
  motility: -16%
  motility viability: -9

O=C(CSCc1ccc([N+](=O)[O-])cc1)NC1CCCCCC1
  motility: 13%
  motility viability: 1

CN(Cc1nc(-c2ccccn2)no1)S(=O)(=O)c1ccc(Cl)cc1
  motility: -4%
  motility viability: 9

O=C(Nc1ccccc1-n1cccc1)c1ccccc1Br
  motility: -6%
  motility viability: 1

Cc1cc2c3c(c1)c(-c1ccccc1)c(C)n3CCC2
  motility: -5%
  motility viability: -1

C=CCn1c(-c2cccs2)nc2ccccc21
  motility: 0%
  motility viability: 0

O=C1CC(c2ccccc2)OC12CCCCC2 (configuration not stated)
  motility: 21%
  motility viability: 5

O=C(Nc1ccc(CN2CCOCC2)cc1)C(Cl)(Cl)Cl
  motility: -11%
  motility viability: -3

CC(C)=CCC12CN3CCN(CC(C3)C1=O)C2
  motility: -3%
  motility viability: -8

CC(C)CNS(=O)(=O)c1ccc(CCC(=O)Nc2ccc(Br)cc2F)cc1
  motility: -3%
  motility viability: -6

O=C(NS(=O)(=O)c1ccccc1)c1cccc([N+](=O)[O-])c1
  motility: 0%
  motility viability: 5

Nc1ncnc(Sc2nc3ccccc3s2)c1[N+](=O)[O-]
  motility: -3%
  motility viability: -13

Cc1ccccc1CN(c1ccc(C(=O)NC(C)(C)C)cc1)S(C)(=O)=O
  motility: -6%
  motility viability: 0

Cc1sc2ncnc(NC(CC(C)C)C(=O)O)c2c1C (configuration not stated)
  motility: 13%
  motility viability: 5

CCOC(=O)C(=O)N1CCN(c2ccccc2OC)CC1
  motility: -3%
  motility viability: -4

O=C(c1cccs1)N1CCN(Cc2ccccn2)CC1
  motility: -3%
  motility viability: -8

O=C(NNC(=O)c1cc(Br)ccc1Cl)Nc1ccc2c(c1)OCO2
  motility: 25%
  motility viability: 22

O=c1c(F)cn(C2CCCO2)c(=O)n1Cc1c(F)cccc1Cl (configuration not stated)
  motility: 11%
  motility viability: -2

COC(=O)CN(c1cc([N+](=O)[O-])ccc1C)S(C)(=O)=O
  motility: -1%
  motility viability: -7

COc1cccc(C2=NN(C(=O)c3onc(-c4ccccc4Cl)c3C)C(c3ccco3)C2)c1 (configuration not stated)
  motility: -14%
  motility viability: 5

COc1ccc(Cl)cc1NC(=S)Nc1ccc(C)cc1Br
  motility: 31%
  motility viability: 8
